GLA inh pH 4.5 – alpha-galactosidase A (human) inhibition, pH 4.5; P06280; purified enzyme, 4-MU-alpha-Gal fluorescence, pH 4.5; activity change, negative = inhibition, % at 105 µM; 230,000 tested, under 10 active; inconclusive = small, poorly fitted or top-dose-only inhibition, or a rising curve; inactive = flat fitted curve, though single readings scatter; no compound was filed as active;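 also: 0% = full activity with enzyme and -100% = basal without enzyme; dose as in the result columns while the protocol names 77 µM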
Target sequence (P06280 whole entry, looked up): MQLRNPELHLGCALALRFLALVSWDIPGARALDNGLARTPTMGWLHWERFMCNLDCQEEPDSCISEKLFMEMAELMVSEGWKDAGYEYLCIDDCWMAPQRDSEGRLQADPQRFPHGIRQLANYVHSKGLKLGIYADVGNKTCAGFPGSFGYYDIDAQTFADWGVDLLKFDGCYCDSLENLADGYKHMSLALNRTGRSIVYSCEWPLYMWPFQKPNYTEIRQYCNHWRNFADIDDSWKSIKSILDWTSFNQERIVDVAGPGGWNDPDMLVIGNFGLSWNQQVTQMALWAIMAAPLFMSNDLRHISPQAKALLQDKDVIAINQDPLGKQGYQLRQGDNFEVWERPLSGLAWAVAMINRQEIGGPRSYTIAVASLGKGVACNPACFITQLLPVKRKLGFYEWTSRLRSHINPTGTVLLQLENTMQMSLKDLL
Active calls of the source: *; & = joins results of further samples. A portion of the library; count on the stated rates, not on these rows.

Start of the listing, in advance (5 entries):
compound	GLA inh pH 4.5
O=C(OC1Cc2c(O)cc(O)cc2OC1c1cc(O)c(O)c(O)c1-c1c(C2Oc3cc(O)cc(O)c3CC2OC(=O)c2cc(O)c(O)c(O)c2)cc(O)c(O)c1O)c1cc(O)c(O)c(O)c1 (stereo not drawn)	1
OCC1OC(n2cnc3c(Cl)ncnc32)C(O)C1O (stereo not drawn)	1
COC(=O)/C(=C1\OC(=O)C(c2ccccc2)C1=O)c1ccccc1 (stereo not drawn)	-11
CC1(OC(=O)c2ccc(Cl)nc2)C(=O)C=C2C=C(c3ccc(C#N)cc3)OC=C2C1=O (stereo not drawn)	-3&-2
C[C@H]1Cc2c(-c3ccccc3)nc3c(c2CO1)CN(C(=O)C1CCCCC1)CC3	-5

The listing (from the top)
compound	GLA inh pH 4.5
O=C(OC1Cc2c(O)cc(O)cc2OC1c1cc(O)c(O)c(O)c1-c1c(C2Oc3cc(O)cc(O)c3CC2OC(=O)c2cc(O)c(O)c(O)c2)cc(O)c(O)c1O)c1cc(O)c(O)c(O)c1 (stereo not drawn)	1
OCC1OC(n2cnc3c(Cl)ncnc32)C(O)C1O (stereo not drawn)	1
COC(=O)/C(=C1\OC(=O)C(c2ccccc2)C1=O)c1ccccc1 (stereo not drawn)	-11
CC1(OC(=O)c2ccc(Cl)nc2)C(=O)C=C2C=C(c3ccc(C#N)cc3)OC=C2C1=O (stereo not drawn)	-3&-2
C[C@H]1Cc2c(-c3ccccc3)nc3c(c2CO1)CN(C(=O)C1CCCCC1)CC3	-5
COCOc1ccccc1C(=O)/C=C/c1ccccc1	-3
COC(=O)[C@@]1(Cc2ccc(OC)cc2)[C@H]2c3cc(C(=O)N(C)C)n(Cc4ccccc4)c3C[C@H]2CN1C(=O)c1ccccc1	-8
CCOC(=O)[C@@]12C[C@@H]1/C(=N/O)c1ccccc1O2	0
COc1cc2cc[n+]3cc4c(OC)c(OC)ccc4cc3c2cc1OC	3
NCCC(=O)N[C@H](Cc1cnc[nH]1)C(=O)O	-9
C[N+](C)(C)CCC(=O)c1cccc2ccccc12	2
COc1cc2c(cc1O)C(Cc1ccc(O)cc1)N(C)CC2 (stereo not drawn)	-4
CC(C)C[C@@H](CC(=O)N[C@@H](CCC(=O)O)CC(=O)O)NC(=O)[C@@H]1CCCC[C@H]1NC(=O)C[C@H](CCCN)NC(=O)C[C@H](Cc1ccccc1)NC(=O)[C@@H]1CNCC[C@H]1N	0
CCC(=O)N[C@@H]1Cc2ccccc2[C@@H](c2ccccc2)C1	-7
NCCC[C@@H](CC(=O)N[C@@H]1CCNC[C@H]1C(=O)N[C@H](CC(=O)N[C@@H](CCC(=O)O)CC(=O)O)Cc1ccccc1)NC(=O)C[C@H](Cc1ccccc1)NC(=O)[C@@H]1CCCC[C@H]1N	1
O=c1c(O)c(-c2ccc(O)c(O)c2)oc2c(OC[C@@H]3O[C@@H](O)[C@@H](O)[C@H](O)[C@H]3O)c(O)cc(O)c12	-8
CCN(CC)CCCC(C)n1c(-c2ccccc2)nc2c(N3CCOCC3)nc(C)nc21 (stereo not drawn)	-1
N[C@H](CSC(c1ccccc1)(c1ccccc1)c1ccccc1)C(=O)O	-10
CC[C@H](C)[C@@H](NC(=O)O[C@@H]1C(=O)c2ccc(OC)cc2O[C@H]1c1cccc(C(F)(F)F)c1)C(=O)OC	-11
CCCCC/C=C\C/C=C\CCCCCCCC(N)=O	-13&-2

Ordered by length of the SMILES (smallest number first): part of the list above
compound	GLA inh pH 4.5
O=c1c(O)c(-c2ccc(O)c(O)c2)oc2c(OC[C@@H]3O[C@@H](O)[C@@H](O)[C@H](O)[C@H]3O)c(O)cc(O)c12	-8
CC(C)C[C@@H](CC(=O)N[C@@H](CCC(=O)O)CC(=O)O)NC(=O)[C@@H]1CCCC[C@H]1NC(=O)C[C@H](CCCN)NC(=O)C[C@H](Cc1ccccc1)NC(=O)[C@@H]1CNCC[C@H]1N	0
NCCC[C@@H](CC(=O)N[C@@H]1CCNC[C@H]1C(=O)N[C@H](CC(=O)N[C@@H](CCC(=O)O)CC(=O)O)Cc1ccccc1)NC(=O)C[C@H](Cc1ccccc1)NC(=O)[C@@H]1CCCC[C@H]1N	1

New compounds follow:
compound	GLA inh pH 4.5
O=C(O)Cc1ccc(OCCNC[C@H](O)c2ccccc2)cc1	-3
C=CCOC(=O)N[C@H](c1cccc(C(F)(F)F)c1)C(C(C)=O)C(C)=O	-4
O=C(O)c1ccccc1-c1c2ccc(=O)cc-2oc2cc(O)ccc12	-10
COc1cc(COc2cc(N)c(Cl)cc2C(=O)CCC2CCN(CCNS(C)(=O)=O)CC2)cc(OC)c1	-7
CN=C(NC#N)NCCSCc1csc(N=C(N)N)n1	-1
Cc1c(C)c2c(c(C)c1O)CC[C@@](C)(CCC[C@@H](C)CCC[C@@H](C)CCCC(C)C)O2	-3&6
CCC(/C=C/C(C)C1CCC2C3CCC4=CC(=O)CC[C@@]4(C)C3CC[C@@]12C)C(C)C (stereo partly drawn)	0
COc1ccc(/C=C/C(=O)c2ccc(C)s2)cc1	-6
CC1(C)CC[C@]2(C(=O)O)CC[C@@]3(C)C(=CCC4[C@@]5(C)CCC(O)C(C)(C)C5CC[C@@]43C)C2C1 (stereo partly drawn)	-3
COc1ccc(-c2oc3cc(OC)c(OC(C)=O)c(OC)c3c(=O)c2OC)cc1OC(C)=O	-12
c1ccc2c(c1)CC(N1CCN(c3cccc4c3OCCO4)CC1)C2	4
C[C@@H]1OC(OC2CC[C@@]3(C)C(CC[C@@]4(C)C3CC=C3C5CC(C)(C)CC[C@]5(C(=O)OC5OCC(O)[C@@H](O)[C@@H]5OC5O[C@@H](C)[C@H](O[C@H]6OC(CO)C(O)C(O)C6O)C(O)C5O)C(O)C[C@@]34C)C2(C)C)C(O)C(O)[C@H]1OC1OCC(O)C(O)[C@H]1O (stereo partly drawn)	1
C=CCOC(=O)N[C@H](C[N+](=O)[O-])c1ccccc1	-5
COc1cc2c(Cc3c4c5c(cc(OC)c(OC)c5c5c(OC)c(OC)ccc35)CCN4C)c3c4c(cc(OC)c(OC)c4c2cc1OC)CCN3C	-28
COC(=O)[C@@]1(Cc2ccccc2)[C@H]2c3cc(C(=O)N(C)C)n(Cc4cc(C)n(C)n4)c3C[C@H]2CN1C(=O)c1ccccc1	4
COc1ccc2c(c1)C(c1ccc(C)cc1)CC(=O)O2 (stereo not drawn)	4
COc1cc(O)c2c(=O)cc(C)oc2c1CC=C(C)C	-4&6
COC(=O)CC1Oc2cc3oc4c5ccccc5oc(=O)c4c3cc2O1 (stereo not drawn)	5
CCC(C)CCCCC(=O)NC(CCN)C(=O)NC(C(=O)NC(CCN)C(=O)NC1CCNC(=O)C(C(C)O)NC(=O)C(CCN)NC(=O)C(CCN)NC(=O)C(CC(C)C)NC(=O)C(Cc2ccccc2)NC(=O)C(CCN)NC1=O)C(C)O (stereo not drawn)	1
O=c1[nH]c2cc(Cl)ccc2c(O)c1-c1ccc(Oc2ccccc2)cc1	0
CCCn1c(-c2ccc(F)cc2)nc2c(NCC3CCN(C)CC3)nc(C)nc21	-4
Cc1nc(N2CCOCC2)c2nc(-c3ccccc3)n(CCN3CCCCC3)c2n1	-3
CCCC[C@H](CC)CN1CN(C[C@@H](CC)CCCC)CC(C)(N)C1	8
COc1cc2c(C=O)c3c4c(cc(OC)c(OC)c4c2cc1OC)CCN3C	-11
CCCCCCCCCCCCCC(=O)N[C@H](C)[C@@H](O)c1ccccc1	-3
c1ccc2cc(C3=NCCN3)ncc2c1	-3
CC(C)(O)[C@@H]1CCC[N+]2(C)CCCC[C@H]12 (stereo partly drawn)	-6
COc1cccc([C@@H]2Oc3ccc(Br)cc3C[C@H]2OC(=O)Nc2ccc(C)c(Br)c2)c1	-7
C=C(C)C(=O)C1CCCCC1	-12
CC1(C)C(=O)C(c2ccccc2)=C2CN3C(=O)N(CCc4ccccc4)C(=O)C3(Cc3ccccc3)C=C21 (stereo not drawn)	-4
OCC1O[C@H](O)C(Cl)C(O)C1O (stereo partly drawn)	0
Cc1ccccc1CNc1ncnc2c1ncn2C1OC(CO)C(O)C1O (stereo not drawn)	1
O=c1c(-c2ccc(O[C@@H]3O[C@H](CO)[C@@H](O)[C@H](O)[C@H]3O)cc2)coc2cc(O)cc(O)c12	5
NNc1nncc2ccccc12	-1&0&8
O=C1OC2C[C@H]1[C@@H]1C(=O)N(Cc3ccccc3)CCC1C2I (stereo partly drawn)	-4
Cc1cc(C(=O)O)sc1C(N)C(=O)O (stereo not drawn)	0
CN1CCC2(CCN3CCc4c(oc5ccccc45)C3C2)N(C)C1=O (stereo not drawn)	-1
NC(Cc1cc(I)c(Oc2cc(I)c(O)c(I)c2)c(I)c1)C(=O)O (stereo not drawn)	8
O=C(Nc1ccccc1)[C@@]12C[C@@H]1/C(=N/O)c1ccccc1O2	0
O=c1ncccn1[C@@H]1O[C@H](CO)C(O)[C@@H]1O (stereo partly drawn)	-3
COC(=O)[C@@H](NC(=O)O[C@H]1C(=O)c2cc(OC)ccc2O[C@@H]1c1ccc(OC)c(Br)c1)C(C)C	0
O=C(O)C[C@@H]1NC(=O)[C@H](Cc2ccccc2)NC1=O	1
COc1ccc2c(c1)O[C@@H](c1ccc3c(c1)OCO3)[C@H](O)C2=O	0
COCCN1C(=O)N[C@@H](CCc2ccccc2)C(C(=O)OC)=C1C	0
CC(CCC(=O)O)C1CCC2C3CC[C@H]4CC(O)CC[C@@]4(C)C3C=C[C@]12C (stereo partly drawn)	7
COC(=O)[C@@]1(Cc2ccc(F)cc2)[C@H]2c3cc(C(=O)N4CCCC4)n(Cc4ccccn4)c3C[C@H]2CN1C(=O)c1ccccc1	-4
C=Cc1c(C)/c2[n-]/c1=C\c1[n-]c(c(CC)c1C)/C=c1\[n-]c3c(c1C)C(=O)C(C(=O)[O-])C=3c1[n-]c(c(C)c1CCC(=O)[O-])\C=2.[Cu].[Na+].[Na+] (stereo not drawn)	-5
CCCn1c(C)nc2c(N(CCN(CC)CC)CCN(CC)CC)nc(C)nc21	0
O=c1cc(-c2cccc(-c3ccc(C(F)(F)F)cc3)c2)c2cc3c(cc2o1)OCO3	-12
O=C(N[C@H]1CCCc2ccccc21)O[C@@H]1C(=O)c2cc(Br)ccc2O[C@H]1c1ccc2c(c1)OCO2	-8
CC(=O)OC1C[C@]2(C)[C@@H](CC(O)C3[C@]4(C)CCC(O)C(C)[C@@H]4CC[C@]32C)/C1=C(/CCC=C(C)C)C(=O)O (stereo partly drawn)	4
CC(N)CCCC(C)(C)O (stereo not drawn)	-1
C[C@@](N)(C(=O)O)c1ccc(C(=O)O)cc1	-2&2
COC1C(O)CC(=O)OC(C)C/C=C/C=C/[C@@H](OC2CCC(N(C)C)C(C)O2)C(C)C[C@@H](CC=O)[C@@H]1O[C@H]1OC(C)[C@H](O[C@@H]2C[C@@](C)(O)C(O)C(C)O2)C(N(C)C)C1O (stereo partly drawn)	-5
COc1cccc([C@@H]2Oc3ccc(OC)cc3C[C@H]2OC(=O)NCc2ccco2)c1	-10
CC(C)C1NC(=O)[C@H](CCCCN)NC(=O)[C@@H](Cc2c[nH]c3ccccc23)NC(=O)[C@H](Cc2ccc(O)cc2)NC(=O)[C@H](C)N(C)C(=O)[C@H](Cc2ccccc2)NC1=O (stereo partly drawn)	-7
Cc1ccc(C(O)C2=CCCC2=O)cc1 (stereo not drawn)	-7
COc1ccc(C(=O)C2C3C4COC(O4)C(=O)C3C3C=Cc4ccccc4N32)c(OC)c1 (stereo not drawn)	-2
CC(C)C[C@@H](CC(=O)N[C@@H](CCC(=O)O)CC(=O)O)NC(=O)[C@@H]1CCCC[C@H]1NC(=O)C[C@H](CCCN)NC(=O)C[C@H](CO)NC(=O)[C@@H]1CNCC[C@H]1N	4
Cc1ccc(CNC(=O)[C@H](C)[C@H]2C[C@]2(C)[C@H](NC(=O)OCc2ccccc2)c2ccccc2)c(F)c1F	-8

New compounds follow
compound	GLA inh pH 4.5
NCCC[C@@H](CC(=O)N[C@@H]1CCCC[C@H]1C(=O)N[C@H](CC(=O)N[C@@H](CCC(=O)O)CC(=O)O)Cc1ccccc1)NC(=O)C[C@H](CO)NC(=O)[C@@H]1CCCC[C@H]1N	-4
O=[N+]([O-])c1cc2nc(O)c(O)nc2cc1[N+](=O)[O-]	-10
CN(C)C1C(=O)C(C(N)=O)=C(O)[C@@]2(O)C(=O)C3=C(O)c4c(O)ccc(Cl)c4C(O)[C@H]3C[C@@H]12 (stereo partly drawn)	-1
C=CCOC(=O)N[C@H](/C(C(=O)OC)=C(\C)NCc1ccccc1)c1cccc(OC)c1	-5
CCC[C@@H]1C[C@@]1(CCC)C(NP(=O)(c1ccccc1)c1ccccc1)c1ccc(Cl)cc1 (stereo partly drawn)	-10
O=c1[nH]cnc2c1ncn2C1CC(O)C(CO)O1 (stereo not drawn)	-2
OCC1OC(n2cnc3c(=S)nc[nH]c32)C(O)C1O (stereo not drawn)	3
CCCN1[C@H](C(=O)OC)C[C@@]2(O)[C@@H](O)[C@@H](O)[C@@H](O)C[C@@H]12	1
CS(=O)(=O)Nc1c(O)ccc2c1CCC[C@H]2C1=NCCN1	4
COc1cccc([C@@H]2Oc3ccc(OC)cc3C(=O)[C@H]2OC(=O)NCCc2ccc(OC)c(OC)c2)c1	5
CC(C)(S)[C@H](N)C(=O)O	6
CC1(C)CCC[C@@](C)([C@H]2CC[C@]3(C)[C@@H]2[C@H](O)C[C@@H]2[C@@]4(C)CC[C@H](O)C(C)(C)[C@@H]4[C@@H](O)C[C@]23C)O1	-1
COC(=O)N1[C@H](Cc2ccccc2)C=C[C@]1(C)C(=O)NCc1ccc(N(C)C)cc1	0
CCC1=C2CC[C@H]3C(=O)N(c4ccccc4)C(=O)[C@H]3[C@H]2[C@@]2(Cc3ccccc3)C(=NCC3CC3)OC(=O)N2C1=O	-9
CCN(CC)CCCC(C)n1c(-c2ccccc2)nc2c(NC3CCCCC3)nc(C)nc21 (stereo not drawn)	-16
COc1ccc(-c2nc3c(c4c2C[C@H](c2ccccc2)OC4)CN(C(=O)C2CCCCC2)CC3)c(C)c1	4
CCN(CC)CCCn1c(-c2ccccc2)nc2c(NCc3ccccc3)nc(C)nc21	-21
COc1ccc2c(c1)C(=O)[C@H](OC(=O)NCCOc1ccccc1)[C@@H](c1ccc(OC)c(Br)c1)O2	-5
